Ba CapD inh – inhibitors of Bacillus anthracis CapD enzyme | purified CapD enzyme, fluorescence intensity read-out; stronger effect = lower value; some hits fall short of the stated cut | z-score (concentration not given with the values) | actives 0.23% (n = 140,000) | AID 492967;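 active = z-score under -4 in either of two replicates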;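 also: stock transfer was 100 nL into about 40 µL; score is relative to mean and spread of the plate; one replicate is shown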
AID504770 – E. coli YBA685 growth inhibition, screen for V. cholerae RctB inhibitors; actives 0.27% (n = 130,000); z-score (test concentration not listed); E. coli YBA685 rctB-dependent plasmid, OD600 growth, 3 h; stronger effect = lower value;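 active = z-score under -2 on both plates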;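 also: wells of about 30 µL received 100 nL stock; score is relative to mean and SD of the test wells; the first replicate is given; strong numbers were not always called active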
* hit, by the source's call; i = inactive; . = not tested or not shown; & = joins results of further samples. Rows were taken by chance. About 0.37% of those tested had a hit in this group.

Results follow in this order: Ba CapD inh, AID504770
- CC1(C)CC(=O)C2=C(C1)OC1=C(C(=O)CC(C)(C)C1)C2c1ccc(O)c([N+](=O)[O-])c1
 : 0.16, .
- Cc1ccc(-c2csc(-c3cc(C)on3)n2)cc1
 : 0.045, 0.65
- O=C(Nc1ccc(Br)c(C(F)(F)F)c1)c1ccc(=O)[nH]c1
 : ., -0.35
- O=C(Nc1cnc2ccccn2c1=O)c1ccccc1
 : 1.84, -0.1
- CC(C)c1ccc2oc(-c3cccc(N)c3)nc2c1
 : 51.6, -0.05
- CCN(C(=O)C1CCCN(c2nc(-c3ccc(OC)cc3)no2)C1)c1ccccc1F (stereo not drawn)
 : 0.04, -0.05
- Cc1ccc(C(=O)OCC(=O)N2CCOCC2)cc1
 : ., -0.35
- CN(Cc1ccccc1)S(=O)(=O)c1cn(C)cn1
 : 1.05, 0.45
- CC(=O)Nc1ccccc1-c1nc2ccccc2s1
 : 1.19, 2
- CC(C)c1nc(C(N)=O)c2[nH]c(=O)n(-c3ccc(Cl)cc3)c2n1
 : 20.1, 0.3
- COc1ccccc1N1CCN(C(=O)c2cc3nc(-c4ccc5c(c4)OCO5)cc(C(F)(F)F)n3n2)CC1
 : 0.33, .
- CCn1cc(C(=O)N2CCN(c3ccc(F)cc3)CC2)c(=O)c2cc(S(=O)(=O)N(C)C)ccc21
 : -1.14, 0.2
- COc1ccc(N2CCN(C(=O)CCCCCn3c(=S)[nH]c4ccc(Br)cc4c3=O)CC2)cc1
 : -1.21, .
- COc1ccc(NC(=O)CSc2nc3n[nH]c(C)c3c(=N)n2-c2cccc(Cl)c2)c(OC)c1
 : 0.1, .
- C=CCOc1ccc(CN2CCN(CCOC(=O)N3CCN(c4cccc5[nH]ccc45)CC3)CC2)cc1
 : 0.955, .
- C=CCn1c(=S)[nH]c2scc(-c3ccc(OC)c(OC)c3)c2c1=O
 : -0.32, .
- OCC1(CO)CSC(Nc2cc(Cl)cc(Cl)c2)=N1
 : 0.81, 1.45
- CC(C)(C)Cc1nc(-c2ccccc2)no1
 : 0.595, -0.9
- CC(=O)NCCC(=O)O
 : ., -0.7
- NC(=O)C1CCN(C(=O)c2ccc(NC3=NC4CS(=O)(=O)CC4S3)cc2)CC1 (stereo not drawn)
 : -1.22, -0.3
- CCOC(=O)c1sc2nc(CC(=O)OC)nc(NCCC3=CCCCC3)c2c1C
 : 51.4, .
- N#Cc1ccccc1Cn1cc(/C=C2\NC(=O)NC2=O)c2ccccc21
 : 0, 0.25
- CCN(CC)c1ccc(CN(C)CCc2ccc(OC)c(OC)c2)cc1
 : 0.145, -0.6
- Cc1c(Br)c(C(F)(F)F)nn1CC(=O)N1CCOCC1
 : 0.23, -0.1
- CC(=O)NC(Cc1c[nH]c2ccccc12)C(=O)NCCOc1ccccc1-c1ccccc1 (stereo not drawn)
 : -1.01, .
- COc1ccc(C2Oc3c(OC)cccc3C3CC(c4cccs4)=NN32)cc1 (stereo not drawn)
 : 10.3, .
- CCOC(=O)C(NC(=O)c1cccc(Cl)c1)(Nc1sc2c(c1C#N)CCC(C)C2)C(F)(F)F (stereo not drawn)
 : -0.33, .
- CCOC(F)(C(N)=O)C(F)(F)F (stereo not drawn)
 : -0.805, -0.55
- COc1ccc(OC)c(NC(=O)c2cccnc2)c1
 : 0.915, 0.1
- CCSC1(SCC)N=C(N)C2(C#N)C(c3cccc(OC)c3)C12C#N (stereo not drawn)
 : 0.235, 0

Carrying on:
Results follow in this order: Ba CapD inh, AID504770
- Cc1ccc(CNC(=O)CN2C(=O)C3(OCCCO3)c3ccccc32)cc1
 : 0.63, 0.35
- Cc1ccc(N2C(=O)N(Cc3c(C)noc3C)C(=O)C2C)cc1 (stereo not drawn)
 : ., -0.4
- COc1cc2c(cc1OC)C(NC(=O)C(F)(F)F)C(Br)C2=O (stereo not drawn)
 : 0.075, .
- CN(C)c1ccc(C2CC(=O)c3ccccc3N2)cc1 (stereo not drawn)
 : -0.01, -0.35
- O=C(Nc1cc(C(=O)N2CCN(c3ccc(F)cc3)CC2)ccc1N1CC2CC(C1)c1cccc(=O)n1C2)c1cccnc1 (stereo not drawn)
 : 0.425, .
- O=C(Nc1nccs1)c1ccccc1NS(=O)(=O)c1ccc(F)cc1
 : ., 1.2
- COc1ccc(N2N=C(C(C)=O)SC23c2ccccc2C(c2ccc(Cl)cc2)=NN3c2ccccc2)cc1 (stereo not drawn)
 : -0.645, .
- O=C(NCc1cccnc1)c1cc(=O)oc2cc(OCc3ccccc3)ccc12
 : 49, .
- O=C(CCl)c1ccc(Cc2ncc(C(F)(F)F)cc2Cl)s1
 : -0.405, .
- COc1cccc(N=C2SC(C(=O)Nc3ccc(Br)cc3)CC(=O)N2C)c1 (stereo not drawn)
 : 0.595, .
- OC(CN1CCN(Cc2ccccc2)CC1)Cn1c2ccc(Br)cc2c2cc(Br)ccc21 (stereo not drawn)
 : -0.045, .
- O=C1/C(=C/c2cccnc2)CCc2ccccc21
 : -0.81, .
- CN(C)CCCOc1ccc(/C=N/NC(=O)c2ccccc2Oc2ccccc2)cc1
 : -0.99, .
- O=c1oc(-c2ccccc2Cl)nc2sc3c(c12)CCCCC3
 : 0.23, .
- CCNC(=O)C(=O)Nc1cccc(C(F)(F)F)c1
 : 0.01, .
- COc1ccc(C2C(C(=O)N3CCCCC3)=C(C)NC3=C2C(=O)CCC3)cc1O (stereo not drawn)
 : -0.09, -0.2
- O=C(CCn1nnc(-c2cccs2)n1)NCc1ccccc1Cl
 : ., 1.25
- O=C1C=C(c2cccs2)C[C@H](c2cccs2)[C@H]1n1nnc2ccccc21
 : -0.275, .
- COc1cc2ncnc(Nc3ccc(Cl)c(Cl)c3)c2cc1OC
 : 14.7, .
- CS(=O)(=O)Nc1cccc(C2=NN(C(=O)CCC(=O)O)C(c3cccc(F)c3)C2)c1 (stereo not drawn)
 : -0.19, 1.85
- COc1ccc(-c2noc(CNC(C)(C)C)n2)cc1OC
 : ., -1.3
- CCOC(=O)c1cnc(=O)[nH]c1N
 : 0.37, -0.6
- O=C(Nc1ccc(Br)cc1F)c1cc(S(=O)(=O)N2CCN(Cc3ccc4c(c3)OCO4)CC2)ccc1F
 : -0.01, .
- CCOC(=O)c1c(O)cc2ccccc2c1O
 : 2.45, -0.35
- Cc1ccc2c(c1)C1CN(C)CCC1N2C(=O)c1cccs1 (stereo not drawn)
 : ., -0.05
- CC(C)(C)NC(=O)c1cnc2n(c1=O)CCS2
 : ., -0.45
- COc1cc(C)nc(NN)n1
 : 0.485, -0.7
- C=CCn1nnnc1SCC(=O)c1ccc(Cl)c(Cl)c1
 : ., 0.05
- CCOC(=O)C1=C(C)N=c2s/c(=C/c3ccc(N4CCOCC4)o3)c(=O)n2C1c1ccc(OC)cc1OC (stereo not drawn)
 : 0.32, .
- CCOC(=O)c1ccc2c(c1)nc(SCc1nc3ccccc3s1)n2CC
 : ., -0.15

(cont.)
Results follow in this order: Ba CapD inh, AID504770
- Cc1ccc(-n2c(SCC(=O)NC(C)(C)C)nc(O)cc2=O)cc1
 : ., 1.8
- CC1=C(C(=O)Nc2ccccc2)C(c2ccco2)C(C#N)=C(SCC(=O)Nc2cccc(Cl)c2C)N1 (stereo not drawn)
 : -0.48, .
- COc1cccc(OC)c1CN(C)C(=O)c1cnccc1C(F)(F)F
 : 0.37, 0.65
- CC(N)Cn1cccn1 (stereo not drawn)
 : ., -0.1
- CC1(C)C(C=C(Cl)Cl)C1C(=O)N1CCOCC1 (stereo not drawn)
 : -0.79, 1.45
- NC(=O)CN1CCN(C/C=C/c2ccccc2)CC1
 : -0.01, -0.6
- CN=C(C)/C(C(=O)OC)=C(\O)c1cc(C)on1
 : -1.61, -0.7
- Cc1ccc(/C=N/NC(=O)C2=NNC(=O)C2C)o1 (stereo not drawn)
 : ., -0.95
- S=C(N/N=C/c1ccccc1Cl)Nc1cccc(Cl)c1Cl
 : -1.46, .
- C=CCNC(=O)c1ccc2c(c1)nnn2C
 : ., 0.35
- O=C1c2cccc3c(N4CCCCC4)ccc(c23)C(=O)N1c1ccccn1
 : ., -0.25
- CCOC(=O)c1sc(NC(=O)COc2ccccc2)nc1-c1ccccc1
 : i, 0.3
- CCc1ccc(C(=O)NCC2(c3ccccc3)CCOCC2)o1
 : ., 0.8
- O=C(CSc1nnc2c(n1)[nH]c1ccccc12)OCN1C(=O)c2ccccc2C1=O
 : -0.235, -0.75
- COC(=O)CSC1=C(C#N)C(=O)NC(/C=C/c2ccccc2)S1 (stereo not drawn)
 : 18.1, -0.2
- COc1ccc(-c2nc3n(c(=O)c2C#N)CCS3)cc1
 : ., 0.05
- COc1cccc(/C=N/NC(=O)c2ccc(C(F)(F)F)cc2)c1OC
 : 0.25, .
- O=[N+]([O-])c1ccc(C2N(c3ccc(F)cc3)CCN2c2ccc(F)cc2)cc1
 : -0.545, .
- ClC1=C(c2ccncc2)NC(c2ccccc2)=CS1
 : -0.445, 0.8
- C=CCN1C(=O)/C(=C/c2c(Sc3ccccc3)nc3ccccn3c2=O)SC1=S
 : 3.02, 0.05
- Cn1c(=O)c2cn(-c3ccccc3)cc2n(C)c1=O
 : 4.08, 1.85
- Cc1nc2c(C(=O)NCCc3ccccc3Cl)c[nH]n2c(=O)c1Cl
 : 0.51, -0.25
- COc1ccc2nc(NC(=O)COC(=O)c3cccc(S(=O)(=O)N4CCOCC4)c3)sc2c1
 : ., 0.95
- O=C(NCc1ccco1)c1ccc(S(=O)(=O)N2CCCC2)cc1
 : ., -0.35
- COc1ccc(N2C(=O)C3ON(C4SC(=S)N(C)C4(C)C)C(c4ccccc4)C3C2=O)cc1 (stereo not drawn)
 : -0.265, .
- C=CCn1c(=S)sc2c(=O)[nH]cnc21
 : ., -2.1
- CCOc1ccc2sc(C=NCCc3ccccn3)c(O)c2c1
 : -2.25, .
- NS(=O)(=O)c1ccc(CCNc2ncnc3c2c(-c2ccccc2)cn3-c2cccc(C(F)(F)F)c2)cc1
 : -0.245, .
- CC1=C(C(=O)OC2CCCC(C)C2)C(c2cc3c(cc2Br)OCO3)NC(=O)N1 (stereo not drawn)
 : -0.285, .
- Cn1c(C(=O)Nc2ccc3c(c2)OCCO3)cc2c(=O)[nH]c3ccccc3c21
 : -0.38, 0.1

The list goes on:
Results follow in this order: Ba CapD inh, AID504770
- Cn1nc(-c2ccc(Cl)cc2)c2cc(C(=O)N3CCN(c4cccc(Cl)c4)CC3)sc21
 : 0.75, -0.3
- Cc1cccc(CN2CCC(CNC(=O)NCc3noc4ccccc34)CC2)c1
 : 0.215, -0.25
- NNC(=O)c1csc(COc2cc(Cl)cc(Cl)c2)n1
 : 10.3, 2
- CCC(=O)N1CCc2cc(S(=O)(=O)NC(C(=O)NCc3ccccc3)C(C)C)ccc21 (stereo not drawn)
 : -2.15, 0.05
- COc1ccccc1NC(=O)CC1COc2ccccc2O1 (stereo not drawn)
 : ., -0.8
- CCN(CCO)C(=O)C12CCC(C)(C(=O)C1)C2(C)C (stereo not drawn)
 : 0.01, -1.15
- O=C(COc1coc(CN2CCc3ccccc32)cc1=O)c1ccccc1
 : ., -0.85
- CCn1c(C(=O)O)c(CC(=O)N2CCN(c3ccc(OC)cc3)CC2)c2ccccc21
 : -0.13, .
- CC(=O)N1CCc2cc(S(=O)(=O)CCC(=O)Nc3ccc(C)cc3Cl)ccc21
 : -1.18, 0.85
- CC(C)CCN(C(=S)Nc1ccc(C(C)C)cc1)C1CCN(C(C)C)CC1
 : 7.27, -0.35
- CCCN(CCC)C(=O)c1sc2nc(-c3ccc(OC)cc3)cn2c1C
 : -0.365, -0.5
- C/C(=C1\N=C(c2ccccc2)OC1=O)N(C)C
 : -0.7, .
- O=c1[nH]c(CN2CCOCC2)nc2ccccc12
 : 0.395, -0.8&-1.15
- Cc1nn(-c2ccccc2)c(N)c1N=Nc1cccnc1
 : ., -0.95
- CC(NS(=O)(=O)c1cc(C(F)(F)F)ccc1Cl)C(=O)N1CCN(c2ccccc2)CC1 (stereo not drawn)
 : ., -1.35
- CN(c1ccccc1)S(=O)(=O)c1cccs1
 : 0.21, -0.2
- O=C(Cn1c2ccccc2c(=O)c2ccccc21)Nc1cc(Oc2ccc(F)cc2F)cc([N+](=O)[O-])c1
 : 7.35, .
- O=C(Cn1cnc2scc(-c3ccccc3)c2c1=O)NCc1ccco1
 : ., 0.65
- CN(C(=O)CNC(=O)c1ccc(Cl)cc1)C1CCCCC1
 : 0.035, -0.15
- NS(=O)(=O)c1ccc(-n2cccc2/C=C2/C(=O)NN(c3ccccc3)C2=O)cc1
 : 0.03, 0.95
- COC(=O)c1ccc(N)cc1O
 : -0.505, -0.35
- Cc1ccc(N(CC(=O)NCc2ccco2)S(=O)(=O)c2ccc(C)cc2)cc1
 : -1.46, 0.4
- COc1ccc2cc(CCNC(=O)C3CCCCC3)c(=O)[nH]c2c1
 : ., -0.35
- OCN1CCCC1
 : 0.295, 0.25
- CC1=C(C(=O)Nc2ccc(Br)cc2F)C2(CCN(S(C)(=O)=O)CC2)OC1=O
 : 1.17, -0.6
- Nc1nc(-c2ccccc2)cc(=S)s1
 : -2.77, 1

Screening data from PubChem BioAssay.
